# Compound activity: PubChem, several laboratories
# CSC inhib = cancer stem cell viability inhibitors, primary screen, luminescence | cancer stem cell-like cells viability | inhibition, % at 7.5 µM | hit rate 1.1% among 300,000;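 active = mean at 75% or more and at least half the replicates too; tested in HMLE shEcad cells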;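 note: 0% = median of negative and 100% = median of positive control wells; the first replicate is given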
# Env fusion inh = inhibitors of HIV-1 Env-driven cell-cell fusion, primary screen, HeLa-JRFL effector, CEM21 target cells, luciferase. inhibition, % at 12.3 µM. hit rate 1.1% among 360,000;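 active = mean replicate inhibition score of at least 50 and every replicate individually at or above 50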;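 note: 0% = plate neutral controls and 100% = maraviroc near 300 nM; one replicate is shown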
# PABP FP inh = PABP poly(A) RNA binding inhibitors, primary screen, biochemical, fluorescence polarization, uHTS; Polyadenylate-binding protein 1 (Homo sapiens), P11940; inhibition, % at 35 µM; hit rate 1% among 290,000; AID 2014, 2009;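 active = 50% or more with normal probe brightness, or confirmed in later tests; about a fifth of its hits are not listed in these tables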;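 note: calls also rest on retests at 20 µM and on dose response follow-up; controls were probe without protein and protein plus probe with vehicle; some compounds called inactive have numbers as strong as hits; many hits fall short of the cut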
# Target sequence (P11940 whole entry, looked up): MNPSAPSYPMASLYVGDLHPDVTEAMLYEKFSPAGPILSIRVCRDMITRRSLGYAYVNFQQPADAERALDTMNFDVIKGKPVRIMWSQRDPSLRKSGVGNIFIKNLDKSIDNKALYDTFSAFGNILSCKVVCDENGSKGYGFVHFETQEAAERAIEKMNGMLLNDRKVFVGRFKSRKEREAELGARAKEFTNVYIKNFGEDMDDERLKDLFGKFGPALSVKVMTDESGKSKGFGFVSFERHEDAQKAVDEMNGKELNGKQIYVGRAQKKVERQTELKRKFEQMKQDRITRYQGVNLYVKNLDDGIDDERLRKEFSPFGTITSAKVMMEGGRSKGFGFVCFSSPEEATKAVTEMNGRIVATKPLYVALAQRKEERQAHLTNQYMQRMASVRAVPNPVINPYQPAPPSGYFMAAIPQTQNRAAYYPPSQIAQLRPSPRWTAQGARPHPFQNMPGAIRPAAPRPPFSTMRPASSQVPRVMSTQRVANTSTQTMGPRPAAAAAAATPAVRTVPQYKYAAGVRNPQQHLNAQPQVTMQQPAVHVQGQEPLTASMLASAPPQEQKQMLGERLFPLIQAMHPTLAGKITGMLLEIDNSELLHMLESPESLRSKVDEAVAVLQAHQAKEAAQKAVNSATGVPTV
# Rce1 inh = yeast Rce1p protease inhibitors, primary screen, biochemical, fluorescence, cell-free homogeneous; hit rate 0.27% among 290,000; CAAX prenyl protease 2 (Saccharomyces cerevisiae (strain ATCC 204508 / S288c)), Q03530; yeast membranes, quenched prenylated peptide cleavage fluorescence; calls only;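 active = fall in fluorescence gain of 50% or more versus controls, with final raw signal at or below 3038400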;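 note: plate controls were neutral control wells for no effect and wells lacking membranes for full effect; tested at 10 µM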
# Target sequence (Q03530 whole entry, looked up): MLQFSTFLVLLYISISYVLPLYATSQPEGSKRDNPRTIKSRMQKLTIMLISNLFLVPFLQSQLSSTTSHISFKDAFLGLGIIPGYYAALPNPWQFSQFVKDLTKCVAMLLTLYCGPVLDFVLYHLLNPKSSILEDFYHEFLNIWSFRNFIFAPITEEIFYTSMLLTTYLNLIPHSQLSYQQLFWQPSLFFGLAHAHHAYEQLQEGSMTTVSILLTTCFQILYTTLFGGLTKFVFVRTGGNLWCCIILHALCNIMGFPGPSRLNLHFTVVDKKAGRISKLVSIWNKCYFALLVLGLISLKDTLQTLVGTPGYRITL
# MT1-MMP act inh = blockers of MT1-MMP proenzyme processing, primary screen, HT1080 RFP-PRO-GFP cells, GFP/RFP fluorescence. hit rate 0.061% among 360,000. AID 651647, 2012. GFP/RFP ratio change, % at 20 µM. GFP/RFP ratio fluorescence, overnight; percent of plate control window, DMSO zero. Matrix metalloproteinase-14 (Homo sapiens), P50281;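 active = GFP/RFP ratio change of at least 30% with cell ATP level not reduced by more than half and red fluorescence within 50% of control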; note: strong numbers were not always called active
#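 Assay system: HT1080 RFP-PRO-GFP cells | Dosing: 20 µM single dose, 1% DMSO | Incubation: Cells overnight before dosing, compound overnight, 37 °C, 5% CO2 | Evaluation: GFP/RFP fluorescence ratio | Control set: DMSO-only wells and HT1080 RFP-L50D-GFP cell wells as references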
# UUG fidelity = modulators of yeast start codon fidelity, primary screen, whole organism, S. cerevisiae, single point, plate reader | S. cerevisiae UUG-firefly luciferase reporter, luminescence/redox ratio | activity score, % at 18.7 µM | hit rate 0.13% among 350,000 | AID 602363, 2012;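 active = replicate mean at a twofold rise or more, about +100% in these data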;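 note: firefly luciferase made from a UUG start codon reports start codon fidelity; reporter light over untreated wells divided by growth signal over untreated wells; some hits fall short of that in this replicate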
# eIF4H FP inh = human eIF4H binding inhibitors, primary screen, translation initiation inhibitor project, biochemical, uHTS, fluorescence polarization | hit rate 0.94% among 290,000 | eIF4H fluorescence polarization binding assay | inhibition, % at 35 µM | Eukaryotic translation initiation factor 4H (Homo sapiens), Q15056;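 active = 50% or more with normal probe brightness, or confirmed in later tests; about a fifth of its hits are not listed in these tables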;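 note: calls also rest on retests at 20 µM and on dose response follow-up; 0% = protein and probe with vehicle and 100% = probe without protein; strong numbers were not always called active; many hits fall short of the cut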
# MT1-MMP act inh RFP = second read-out of MT1-MMP act inh, no call of its own (marks repeat the call); RFP signal change, %; measured here: RFP expression control read;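 0 = vehicle wells; hits needed this value within 50% of zero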
# * = called active by the depositor; i = inactive; nt = not tested or not shown; & = joins results of further samples.
cpd	structure	CSC inhib	Rce1 inh	MT1-MMP act inh RFP	MT1-MMP act inh	eIF4H FP inh	Env fusion inh	PABP FP inh	UUG fidelity
1	CCCC(C(=O)NC1CCCC1)N(C(=O)c1snc(C(N)=O)c1N)c1ccc(F)cc1 (stereo unspecified)	nt	i	-2	-1	-7	9	3	-11
2	COC(=O)CN(C)C(=O)c1ccc(OC2CCN(S(=O)(=O)N(C)C)CC2)cc1	-5	i	-2	7	4	3	1	12
3	CCN(CC)S(=O)(=O)c1ccc(S(=O)(=O)NCc2cccs2)cc1	-3	i	0	4	-2	0	2	-14
4	Cc1ccc(C(=O)N2CCC3(CC2)Oc2ccc(F)cc2C(=O)C32CC(c3ccccc3)=NO2)s1 (stereo unspecified)	5	i	-2	-1	-6	-73	7	-11
5	CC(C)CCNC(=O)C(CC(C)C)N(Cc1ccc2c(c1)OCO2)C(=O)c1snc(C(N)=O)c1N (stereo unspecified)	-3	i	-14	-6	-13	-9	-2	nt
6	CCC(C)(C)NC(=O)CN(C(=O)c1snc(C(N)=O)c1N)c1ccc2c(c1)OCO2	-2	i	nt	nt	3	nt	7	5
7	O=C(NCc1ccc(F)cc1)c1noc2c1CCCC2	14	i	-1	1	-1	nt	-4	nt
8	COc1cc(OC)c(C(=O)OCC(=O)c2cc(C)n(CC3CCCO3)c2C)cc1OC (stereo unspecified)	-2	i	-4	4	5	-28	-5	-13

# Single records (already shown):
# COC(=O)CN(C)C(=O)c1ccc(OC2CCN(S(=O)(=O)N(C)C)CC2)cc1 is entered as CSC inhib: -5; Rce1 inh: i; MT1-MMP act inh RFP: -2; MT1-MMP act inh: 7; eIF4H FP inh: 4; Env fusion inh: 3; PABP FP inh: 1; UUG fidelity: 12
# CCCC(C(=O)NC1CCCC1)N(C(=O)c1snc(C(N)=O)c1N)c1ccc(F)cc1 (stereo unspecified) is entered as CSC inhib: nt; Rce1 inh: i; MT1-MMP act inh RFP: -2; MT1-MMP act inh: -1; eIF4H FP inh: -7; Env fusion inh: 9; PABP FP inh: 3; UUG fidelity: -11

# Additional entries
cpd	structure	CSC inhib	Rce1 inh	MT1-MMP act inh RFP	MT1-MMP act inh	eIF4H FP inh	Env fusion inh	PABP FP inh	UUG fidelity
9	CCCCC[C@H](O)/C=C/[C@@H]1[C@@H](C/C=C\CCCC(=O)O)[C@@H](O)C[C@H]1O	-4	i	-3	3	3	-16	6	-4
10	Cc1ccc2nc(C)cc(N/N=C/c3cccnc3)c2c1	-2	i	0	-2	-12	-11	-2	nt
11	O=c1[nH]c(/C=C\c2cccc(Cl)c2)nc(O)c1[N+](=O)[O-]	6	i	4	0	-6	-18	8	-9
12	Cc1ccccc1CC(=O)N1CCCC(CCC(=O)N2CCN(c3ccccn3)CC2)C1 (stereo unspecified)	-3	i	-5	2	-2	4	-1	nt
13	O=C(CCN1CCN(c2ccccc2)CC1)Nc1nccs1	-10	i	-2	1	-12	2	-12	nt
14	CCOC(=O)c1c(C)nc2sccn12	-8	i	-4	-1	-6	-10	6	-19
15	Cc1cc(NC(=O)c2ccc(Cl)cc2)no1	-6	i	-2	-2	-15	-64	-12	-13
16	CC(C)(C)C1CCc2sc(-c3nnc(CCl)o3)cc2C1 (stereo unspecified)	-6	i	0	0	0	-4	-1	nt
17	CCOc1ccc(-c2cc(C(=O)N3CCN(C)CC3)c3ccccc3n2)cc1	10	i	0	-1	-1	-161	3	-19
18	O=C(CSc1ccccn1)N1CCCC(Nc2ccccc2)C1 (stereo unspecified)	nt	i	-3	-4	-6	5	3	-1
19	Nc1ccc[n+](CC(=O)c2ccccc2)c1	-4	i	2	-2	6	5	6	-16
20	COc1ccc(Br)cc1CN1CCCCCCC1	-12	i	5	2	-12	nt	-11	-24
21	CCS(=O)(=O)N1CCN(c2c(Cl)cccc2[N+](=O)[O-])CC1	-4	i	-2	-2	0	nt	2	-14
22	CCOC(=O)[C@@H]1[C@H]2COc3cc(OC)ccc3[C@@H]2N2C(=O)N(c3ccc(C)cc3)C(=O)[C@@]12C	-9	i	-2	0	-2	37	6	11
23	O=C(CNc1ccccc1)N/N=C/c1ccc([N+](=O)[O-])cc1	-1	i	2	4	-6	-10	11	nt
24	O=C(CCNS(=O)(=O)c1ccc(Br)cc1)NC1CCCCC1	14	i	3	4	4	-3	-3	-11
25	FC(F)(F)c1ccc(C2[C@H]3CN(Cc4cccnc4)[C@H](c4ccccc4)C34CC2(c2ccccc2)C4)cc1 (stereo partly specified)	32	i	-20	-10	-6	49	1	-12
26	CCn1ccnc1CN(C)C(=O)c1cc(COc2ccc(Cl)cc2OC)on1	3	i	-1	-3	-10	5	3	-6
27	Cn1c(=O)[nH]c(=O)c2c1nc(N1CCNCC1)n2CCOc1ccccc1	5	i	5	-2	nt	nt	nt	-8
28	Cc1cc(C(=O)N/N=C/c2ccc(-c3ccc([N+](=O)[O-])cc3Cl)o2)n[nH]1	7	i	-2	0	7	3	-2	-22
29	O=C(NCCN1CCOCC1)c1c[nH]c2ccc(S(=O)(=O)N3CCOCC3)cc2c1=O	-11	i	-1	-3	-4	nt	-9	-13
30	CCc1ccc(NC(=O)CS(=O)CC(=O)NC(C)CCc2ccco2)cc1 (stereo unspecified)	-11	i	3	-1	-8	nt	-9	-36
31	COc1ccc(C(=O)c2c3ccc([N+](=O)[O-])cc3[n+]([O-])n2CCCN)cc1	5	i	-9	-14	nt	-32	nt	-17
32	CC(C)(c1ccccc1)c1ccc(OCCCN2CCNCC2)cc1	80*	i	-5	-3	8	13	45	nt
33	CC(Sc1ccc(Cl)cc1)C(=O)Nc1ccccc1C(=O)N1CCOCC1 (stereo unspecified)	12	i	3	3	0	nt	-1	0
34	CC1CCCN(S(=O)(=O)c2ccc(-c3ccc(=O)[nH]n3)o2)C1 (stereo unspecified)	1	i	6	1	-5	13	3	-11
35	Cc1cccc(OCc2nnc(SC(C)C(=O)O)n2Cc2ccccc2)c1 (stereo unspecified)	-4	i	7	3	-1	8	11	-4
36	Cn1cc(/C=C(\NC(=O)c2ccccc2)C(=O)NCCCN2CCOCC2)c2ccccc21	-7	i	4	1	2	1	3	0
37	CCN(CC(=O)NCc1ccc(Cl)cc1)C(=O)CSCC(=O)Nc1ccc(OC)cc1	-5	i	-1	1	nt	-10	nt	-6
38	COc1ccc(C(CCN2CCCC2)c2c(O)cc(OC)cc2OC)cc1 (stereo unspecified)	-4	i	3	3	-9	-6	-3	-7
39	CCOC(=O)CNC(=S)N(Cc1ccc(C)cc1)Cc1ccc(C)o1	nt	i	-3	-2	-11	nt	6	nt
40	Cc1ccc(C)c(NC(=O)C2CCCC2)c1	-6	i	2	2	nt	6	nt	nt
41	COc1ccc(N2C(=O)CC(N3CCN(c4ccc(S(=O)(=O)N5CCCC5)cc4)CC3)C2=O)cc1 (stereo unspecified)	-25	i	1	-1	6	nt	-4	-9
42	CCCc1ccc(C(=O)NNc2cc(Cl)ccc2Cl)cc1	-2	i	3	2	-5	4	-6	2
43	COc1ccc(/C=N/NC(=O)c2nc(Cl)c(Cl)c(N)c2Cl)cc1COc1ccccc1F	-6	i	-1	1	-5	nt	1	-17
44	CCOc1cc(CNc2cccc3[nH]c(C)nc23)ccc1OC	-15	i	-1	8	-3	10	-2	-9
45	C/C(=C/CCC(C)[C@H]1CC[C@@]2(C)C3=C(CC[C@]12C)[C@@]1(C)CCC(=O)C(C)(C)[C@@H]1CC3)C(=O)O (stereo partly specified)	8	i	-2	1	0	3	7	-6
46	COc1ccc(-c2cc3nc(-c4ccccc4)cc(N4CCCC(O)C4)n3n2)cc1 (stereo unspecified)	94*	i	-6	-2	-10	23	-1	nt
47	Cc1ccc(CNC(=O)C2CCCN(Cc3cnn(-c4ccccc4)c3-n3cccc3)C2)cc1 (stereo unspecified)	21	i	-8	13	3	10	-6	-2
48	CCCCn1c(SCC(=O)c2ccc(OCC)cc2)nc2cc(S(N)(=O)=O)ccc21	-17	i	-1	17	3	nt	-6	-4
49	COc1ccc(Br)c(C(=O)Nc2ccc(F)cc2)c1	nt	i	-3	-1	1	-8	-3	nt
50	CCCn1c(=O)n(C)c(=O)c2c(SCC(=O)NC34CC5CC(CC(C5)C3)C4)nc(CC(C)C)nc21	-2	i	-19	-19	6	-1	26	nt
51	CN(CCO)CC(O)CN(c1ccccc1)c1ccccc1 (stereo unspecified)	-6	i	4	2	-7	7	14	nt
52	CCc1sc(C(=O)Nc2nccs2)cc1C	15	i	-2	2	-6	-117	-6	-51
53	CCc1nc2ccc(C(=O)NCCCN3CCCC3=O)cn2c1N(C)C(=O)C1CCCCC1	nt	nt	3	2	nt	9	nt	-3
54	COc1ccc(N(CC(=O)N2CCOCC2)S(C)(=O)=O)cc1	-12	i	2	3	0	-1	4	-10
55	CC(=O)OCc1c(C(F)(F)F)nn(C)c1Sc1ccccc1	-11	i	2	3	0	-17	8	-1
56	CCCCCCCC(=O)Nc1ccc(C(=O)N/N=C/c2cccc([N+](=O)[O-])c2)cc1	14	i	2	2	-18	-126	-19	-5
57	Cc1ccc(CSC2=Nc3sccc3C3=NC(=O)CN23)cc1	10	i	4	-17	12	-17	1	7
58	CCC(CC)C(=O)Nc1c2c(nn1-c1ccc(OC)cc1)CS(=O)(=O)C2	-9	i	0	0	-8	nt	-4	-4
59	CCOc1ccccc1-n1c(SCC(=O)Nc2ccc(CC)cc2)nc2n[nH]c(C)c2c1=N	0	i	nt	nt	-12	nt	-5	nt
60	O=C(C1CCC(CNc2c(N3CCCCC3)c(=O)c2=O)CC1)N1CCCC1 (stereo unspecified)	-16	i	1	-2	50	11	-10	-8
61	CCc1nc(OCC(=O)c2ccccc2)c(C#N)c2c1COC(C)(C)C2	11	i	-9	5	-2	nt	-14	-12
62	CCOC(=O)N1CCC(Nc2c(NCCN3CCN(c4cccc(Cl)c4)CC3)c(=O)c2=O)CC1	2	i	-3	4	-5	27	-6	-22
63	C=C(C)COc1ccc(-c2n[nH]c(C)c2-c2ccccc2OC)c(O)c1	102*	i	3	0	-9	nt	-6	-8
64	COc1ccc([N+](=O)[O-])cc1/C=N/NC(=O)Cc1ccccc1	-9	i	5	0	-5	-7	-4	nt

# Additional entries.
cpd	structure	CSC inhib	Rce1 inh	MT1-MMP act inh RFP	MT1-MMP act inh	eIF4H FP inh	Env fusion inh	PABP FP inh	UUG fidelity
65	COc1ccccc1CNC(=O)c1ccc(S(=O)(=O)N2CCCC2)cc1	-7	i	-3	2	2	-6	-1	3
66	COc1ccc(C(=O)OCC(=O)c2cc(OC)ccc2OC)c(OC)c1	-19	i	4	-1	0	nt	5	10
67	COc1ccccc1CN(Cc1nc2ccccc2c(=O)[nH]1)C(=O)Nc1ccc(C)cc1	-22	i	-2	1	1	nt	-1	-6
68	Cc1ccc(S(=O)(=O)N(C)C)cc1NC(=O)COC(=O)/C=C/c1cccs1	-2	i	3	3	nt	1	nt	4
69	CS/C(=N\S(=O)(=O)c1cccs1)NC(=O)CSc1nc2ccccc2s1	-8	nt	3&4	1&-4	-4	-6	19	-9
70	COc1ccccc1N1CCN(S(=O)(=O)CCNC(=O)C23CC4CC(CC(C4)C2)C3)CC1	9	i	-13	8	-6	26	1	-6
71	CCN(CC)C(=O)c1ccc2nc([C@H]3C[C@H](O)[C@@H](CO)O3)[nH]c2c1	nt	nt	3	-1	nt	-7	nt	-20
72	Cc1ccc(C2=NN3C(=O)c4ccccc4C3C2)cc1 (stereo unspecified)	0	i	-9	7	12	-7	7	nt
73	O=C(O)c1cc(O)ccc1NC(=O)C1CCCO1 (stereo unspecified)	-10	nt	6	2	-2	-5	6	-18
